Source: PubChem BioAssay (National Center for Advancing Translational Sciences (NCATS))
VDR inhibitor: Inhibitors of the vitamin D receptor (VDR): qHTS | Vitamin D3 receptor (Homo sapiens), P11473 | AID 504847, 2011 | hit rate 0.93% among 400,000 | Potency, µM, inactives show max response, negative = inhibition, hits mostly inhibitors | VDR-SRC2-3 peptide fluorescence polarization, 2 h; active = well fitted inhibition curve with a large enough effect; inconclusive = small, poorly fitted or top-dose-only effect, or another doubt; inactive = no such curve, though single readings can be large or run the other way; note: series mostly up to about 120 µM
Target sequence (P11473 whole entry, looked up): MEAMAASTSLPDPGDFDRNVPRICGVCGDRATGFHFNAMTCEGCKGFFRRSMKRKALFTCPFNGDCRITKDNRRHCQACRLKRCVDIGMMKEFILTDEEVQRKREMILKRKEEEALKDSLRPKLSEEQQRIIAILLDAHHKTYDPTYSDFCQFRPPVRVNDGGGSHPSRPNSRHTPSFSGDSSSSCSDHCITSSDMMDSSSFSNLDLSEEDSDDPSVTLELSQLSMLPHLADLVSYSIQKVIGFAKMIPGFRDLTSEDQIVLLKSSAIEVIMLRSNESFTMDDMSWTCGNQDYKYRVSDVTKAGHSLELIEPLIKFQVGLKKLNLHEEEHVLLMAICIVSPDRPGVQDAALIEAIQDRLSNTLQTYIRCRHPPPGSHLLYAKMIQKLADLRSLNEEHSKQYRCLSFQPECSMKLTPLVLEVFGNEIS
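Fluorescence polarization assay of small-molecule disruption of VDR binding to coregulator peptide SRC2-3. Compounds and controls pin-transferred, then read after 2 h incubation at ambient room temperature.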
Active calls of the source: *; ? = inconclusive; & = joins results of further samples. % is set by controls: 0 for no effect and ±100 for the full control effect; potency is the fitted concentration of half-maximal effect.

Start of the listing, in advance (two entries):
SMILES | VDR inhibitor
Cc1n(CC(O)COCc2ccccc2)c2ccccc2[n+]1C (stereo unspecified) | -10%
COC(=O)CN1C(=O)c2cccc3cccc1c23 | -8%

This part in full, from the first entry:
SMILES | VDR inhibitor
Cc1n(CC(O)COCc2ccccc2)c2ccccc2[n+]1C (stereo unspecified) | -10%
COC(=O)CN1C(=O)c2cccc3cccc1c23 | -8%
CC1CCN(C(=O)c2[nH]cnc2C(=O)NC2CCN(C(=O)OC(C)(C)C)CC2)CC1 | -5%
NC(=O)CN1CCN(C(=O)NC2CCCCC2)CC1 | 5%
S=C1Nc2ccccc2Sc2ccc(Cl)cc21 | -13%
Cc1ccc(C)c(OC(=O)CSc2nnc(-c3ccc4c(c3)OCO4)o2)c1 | 5%
Cn1cnnc1SC(C(=O)c1ccccc1)c1ccccc1 (stereo unspecified) | -3%
CCOC(=O)/C(C#N)=C/c1c(N2CCN(C)CC2)nc2ccccn2c1=O | -8%
COc1ccc(OC)c(Nc2nc(N)nc(CCl)n2)c1 | 21%
CN(C)/C=C/C(=O)c1ccn(S(=O)(=O)c2ccccc2)c1 | -13%
c1ccc(C(c2ccccc2)N2CCC3(CCNCC3)CC2)cc1 | 0%
O=C(CCc1ccccc1)NCCc1csc(-c2cccc(F)c2)n1 | 15%
CCOC(=O)c1c(NC(=O)C2C3CCC(O3)C2C(=O)O)sc(C)c1-c1ccc(F)cc1 (stereo unspecified) | -5%
CN(C)c1ccc(NC(=O)COC(=O)c2cc(Cl)ccc2[N+](=O)[O-])cc1 | ?
COc1ccc(C(=O)NC(=S)NNC(=O)CNC(=O)C2CCCCC2)cc1 | 3%
C[C@@H]1CN([C@H](C)CO)C(=O)c2cc(NS(=O)(=O)c3cn(C)cn3)ccc2O[C@@H]1CN(C)S(C)(=O)=O | 18%
C/C(=N\NC(=O)Cn1nc(C)c([N+](=O)[O-])c1C)c1ccco1 | 2%
COc1ccc(Cl)cc1C(Nc1cccnc1)c1ccc2cccnc2c1O (stereo unspecified) | 20µM*
CCOC(=O)Cc1csc(SCC(=O)N2CCN(c3ccc(OC)cc3)CC2)n1 | -18%
CC(=O)O[C@@H]1C[C@H]2C(C)=C[C@H]3OC(=O)[C@@H](C)[C@H]3C[C@H]2[C@]1(C)O | -8%
Cc1onc(-c2c(F)cccc2Cl)c1C(=O)NC1CC1 | -14%
Cc1nc2c(c(=O)n1CCC1=CCCCC1)c1nc3ccccc3nc1n2/N=C/c1ccccc1 | -15%
Cc1noc(C)c1-c1nc(CSc2ccccc2)no1 | -13%
CCN(CC(=O)Nc1ccc(NC(C)=O)cc1)C(=O)CCN1C(=O)c2cccc([N+](=O)[O-])c2C1=O | 6%
Cc1ccc(NC(=O)CSc2nnc(-c3ccncc3)o2)cc1C | -4%

Arranged by number of heavy atoms (ascending): some entries from above
SMILES | VDR inhibitor
S=C1Nc2ccccc2Sc2ccc(Cl)cc21 | -13%
Cn1cnnc1SC(C(=O)c1ccccc1)c1ccccc1 (stereo unspecified) | -3%
Cc1ccc(NC(=O)CSc2nnc(-c3ccncc3)o2)cc1C | -4%
O=C(CCc1ccccc1)NCCc1csc(-c2cccc(F)c2)n1 | 15%
CN(C)c1ccc(NC(=O)COC(=O)c2cc(Cl)ccc2[N+](=O)[O-])cc1 | ?
CCOC(=O)Cc1csc(SCC(=O)N2CCN(c3ccc(OC)cc3)CC2)n1 | -18%

Later entries:
SMILES | VDR inhibitor
Cc1ccc(NC(=O)COC(=O)C2CSC3(C)CCC(=O)N23)cc1S(=O)(=O)N1CCOCC1 (stereo unspecified) | -5%
COC(=O)c1ccc2c(=O)[nH]c(CN3c4ccccc4CC3C)nc2c1 (stereo unspecified) | 1%
CC(C)N(CC#CCC1(O)c2ccccc2-c2ccccc21)CCO | -4%
CCOc1ccccc1N(C)C(=O)NCc1noc2ccccc12 | -6%
Cc1ccc(S(=O)(=O)N(C)c2ccc(OCC(=O)Nc3ccc(S(C)(=O)=O)cc3)cc2)cc1 | -11%
O=C(Nc1cccc(C(=O)N2CCN(c3cccc(Cl)c3)CC2)c1)c1nsc2ccccc12 | 13%
Cc1cc(C)cc(NC(=O)c2cc(S(=O)(=O)NCCC3=CCCCC3)ccc2F)c1 | 8%
COC(=O)c1cc(-c2ccccc2)n(CC(=O)O)c1C | -1%
O=S(=O)(c1ccc(NC(=S)NCc2ccc(F)cc2)cc1)N1CCOCC1 | -9%
O=C(OCC(=O)N1CCN(C(=O)COC(=O)c2ccncc2)CC1)c1ccncc1 | -2%
CN1CCN(C(=O)c2cc(=O)c3cc(Cl)cc(Cl)c3o2)CC1 | 7%
Cc1cc(C)n(-c2ccc(C(=O)OCC(=O)NCc3ccc(Cl)cc3)cc2)n1 | -18%
O=C(N/N=C/c1cccnc1)c1ccc(NC(=O)c2ccccc2Cl)cc1 | 6%
COc1cc2c3cc1OCc1c(O)c(OC)cc4c1C(Cc1ccc(cc1)Oc1cc(ccc1O)CC3N(C)CC2)N(C)CC4 (stereo unspecified) | 10%
O=C(NC(=S)Nc1cccnc1Cl)c1ccco1 | 0%
COCCCNC(=O)c1ccc2c(c1)nc1n2CCCCC1 | 12%
COc1ccc(-c2ccc(/C=N/NC(=O)c3cccnc3)o2)c([N+](=O)[O-])c1 | 0%
Cc1cc(C)c2c(n1)sc1c(=O)n(Cc3ccccc3Cl)nnc12 | 6%
COC(=O)C1CN(C(=O)C(C)Oc2cc(C)ccc2C(C)C)c2ccccc2O1 (stereo unspecified) | -19%
CC(O)(CS(=O)(=O)Cc1ccccc1)c1ccc(Cl)cc1 (stereo unspecified) | -9%
O=S(=O)(Cc1ccc(Cl)cc1)N1CCN(c2ncccn2)CC1 | -14%
CC(CC(=O)Nc1ccc(F)c([N+](=O)[O-])c1)c1ccccc1 (stereo unspecified) | -13%
COc1ccc(C(=O)Nc2nnc(SCC(=O)Nc3ccc(NC(C)=O)cc3)s2)c(OC)c1 | 9%
O=C(Nc1ccc2nc3n(c(=O)c2c1)CCCC3)c1ccccc1F | 24%
O=c1cc(-c2ccccc2)oc2cc(O)ccc12 | -4%&14%
The list continues.
SMILES | VDR inhibitor
COCCn1nnnc1C(c1ccc(OC)c(OC)c1)N1CCN(C(=O)c2ccco2)CC1 (stereo unspecified) | 4%
Cc1ccc(C)c(N2CCN(S(=O)(=O)c3c(C)[nH]c(C)c3C(=O)N3CCCC3)CC2)c1 | -3%
COc1ccccc1N1CCN(CCn2c(=O)[nH]c3c([nH]c4ccccc43)c2=O)CC1 | -1%&10%&-9%
COC(=O)c1c(NC(=O)c2ccco2)sc(C(=O)Nc2ccc(F)cc2)c1C | -2%
CCCN(CCC)S(=O)(=O)c1cccc(C(=O)N=c2sccn2C)c1 | -1%
NC(=O)C1(Nc2ccc(-c3ccc(Br)cc3)cc2)CCCC1 | -14%
Cc1cc(NC(=O)CCCC(=O)Nc2ccc(F)cc2)no1 | -6%
O=C(O)c1ccc(N/N=C/c2ccc(-c3ccccc3Cl)o2)cc1 | -6%
Cn1cc(CNC(=O)c2ccc(OC3CCN(Cc4ccccn4)CC3)cc2)cn1 | -3%
CCOc1ccccc1CNS(=O)(=O)c1ccc2c(c1)oc(=O)n2C | -7%
CCc1nnc(NC(=O)c2cccc(NC(=O)C(C)C)c2)s1 | -9%
O=C(Cn1nc(-c2cccc([N+](=O)[O-])c2)c2ccccc2c1=O)NCC1CCCO1 (stereo unspecified) | -19%
COc1ccc(CNC(=O)CCNC(=O)c2ccco2)cc1OC | 1%
O=C1NC(c2ccccn2)Nc2sc3c(c21)CCC3 (stereo unspecified) | -8%
O=C(COc1ccc(C(=S)N2CCOCC2)cc1)Nc1ccccc1C(F)(F)F | -15%
Cc1ccc(N(CC(=O)NCc2ccc(Cl)cc2)S(=O)(=O)N(C)C)cc1 | -4%
Cc1cc(=O)n2c3c(cccc13)CCC2 | 7%
Nn1c(SCC(=O)N2CCOCC2)nnc1-c1ccco1 | 1%
CS(=O)(=O)N1CCC(C(=O)Nc2ccc(Cl)c(Cl)c2)CC1 | 0%
CS(=O)(=O)c1ccc(Cl)c(NC(=O)CCNC(=O)c2ccco2)c1 | 19%
O=C(CSc1nnc2ccc(-c3ccc(F)cc3)nn12)N1CCCC1 | -15%
Cc1ccc(OCC(=O)Nc2ccc(S(=O)(=O)N(Cc3ccccc3)c3ccccc3)cc2)cc1 | 6%
Nc1cccc2[nH]c(C(F)(F)F)nc12 | -9%
CCCCn1c(CCC)nc([N+](=O)[O-])c1Sc1ccc(Cl)cn1 | -14%
CCC(Oc1ccccc1)C(=O)N1CCN(C(=O)C(CC)Oc2ccccc2)CC1 (stereo unspecified) | -2%

Fetched by compound from above, 5 records:
SMILES | VDR inhibitor
O=C(CSc1nnc2ccc(-c3ccc(F)cc3)nn12)N1CCCC1 | -15%
CCc1nnc(NC(=O)c2cccc(NC(=O)C(C)C)c2)s1 | -9%
COc1ccc(CNC(=O)CCNC(=O)c2ccco2)cc1OC | 1%
O=C(COc1ccc(C(=S)N2CCOCC2)cc1)Nc1ccccc1C(F)(F)F | -15%
Cc1ccc(N(CC(=O)NCc2ccc(Cl)cc2)S(=O)(=O)N(C)C)cc1 | -4%

Next entries follow.
SMILES | VDR inhibitor
Cc1ccc(Sc2c(O)c3ccccc3n(C)c2=O)cc1 | 12%
O=S(=O)(c1ccc(Cl)cc1)c1nc(-c2ccco2)oc1SCc1ccccc1F | -11%
CCOC(=O)c1c(NC(=O)CCCOc2ccccc2C)sc2c1CCC(C)C2 (stereo unspecified) | -1%
COc1ccc(NC(=O)Cn2c(=O)n(CC(=O)NCCc3ccccc3)c(=O)c3ccccc32)cc1 | -11%
CO/N=C/c1ccc(Sc2ccccc2)c([N+](=O)[O-])c1 | 3%
O=C(NCc1ccccc1)C1=C[C@H](C2CCCCC2)C[C@H](OCc2ccc(CO)cc2)O1 | 2%
COc1ccccc1CNC(=O)C(C)n1cccc1C(=O)c1ccccc1 (stereo unspecified) | 2%
CCOc1ccc(NC(=O)c2ccccc2NS(=O)(=O)c2ccc(F)cc2)c([N+](=O)[O-])c1 | -3%
O=C(CSc1nc(-c2ccccc2)ns1)NCC1CCCO1 (stereo unspecified) | -28%
COc1ccc(-c2nc3ccccc3o2)cc1NC(=O)Cc1ccc(Cl)cc1 | 4%
O=C(CSc1nc2c(sc3ccccc32)c(=O)n1CCCC(=O)NC1CCCC1)Nc1ccc(F)cc1 | -5%
Cn1c(SCC(=O)NC2CCCCC2)nnc1-c1ccc(N)cc1 | -16%
O=C(Nc1nc2ccc(Cl)cc2s1)[C@@H]1CCCN1C(=O)c1cccs1 | -22%
CC12Cc3ccc4ccccc4c3C=C1C[N+](C)(C)C2 (stereo unspecified) | 14%
C(=NN1CCCCCC1)c1ccc2c(c1)OCO2 | -10%
Nn1cc(-c2ccccc2)nc1SCC(=O)NCC(F)(F)F | -8%
N#Cc1cc(C(=O)c2cc(F)ccc2O)cn(-c2nccs2)c1=O | -17%
COC(=O)[C@]1(C)N[C@H](c2ccc(-c3ccc(F)cc3)cc2)[C@@H]2C(=O)N(C)C(=O)[C@@H]21 | -5%
CC(C)C(NS(=O)(=O)c1c(Cl)cccc1Cl)C(=O)OCC(=O)c1c[nH]c2ccccc12 (stereo unspecified) | 7%
NS(=O)(=O)c1ccc(NCc2cc(Cl)ccc2OCc2ccccc2F)cc1 | 7%
Cc1ccc(C(=O)Nc2ccnc(-c3cccnc3)n2)cc1 | 5%
Cc1ccc(C(=O)NCc2ccccc2CN2CCCC2)cc1S(=O)(=O)N1CCOCC1 | -9%
CC(O)CNc1ccc([N+](=O)[O-])cc1S(=O)(=O)N1CCOCC1 (stereo unspecified) | 7%
C[C@@H]1CN([C@@H](C)CO)C(=O)c2cccc(NS(C)(=O)=O)c2O[C@H]1CN(C)Cc1ccc(C(=O)O)cc1 | -14%
c1csc(CNCCCN2CCOCC2)c1 | -10%
Next entries
SMILES | VDR inhibitor
Clc1cccc(Cl)c1Cn1cnc2c(NCc3ccco3)ncnc21 | 8%
CC1=CC(=C(C#N)C#N)C=C(C)N1CCN1CCNCC1 | 4%
COc1ccc(NC(=O)NCc2cccn2C)c(OC)c1 | 20%
O=C(Nn1c(-c2ccccc2)nc2ccccc2c1=O)C1CCC1 | 2%
COc1ccc(CCNC(=O)C2CC(=O)N(c3ccc(F)cc3)C2)cc1OC (stereo unspecified) | 8%
CCCCN(C(C)=O)c1ccc(S(=O)(=O)NC2=NCCCCC2)cc1NC(C)=O | 10%
Cc1ccc(C)c(OCc2cc(C(=O)N3CCNC(=O)C3)no2)c1 | 8%
C=CCOc1ccccc1CN1CCSCC1 | -14%
COc1ccccc1-c1ccnc2c(-c3ccc(Br)cc3)c(C)nn12 | -6%
CN(CC(=O)NC1CCN(Cc2ccccc2)CC1)S(=O)(=O)c1ccc(Cl)s1 | -12%
N/C(=N/O)c1nc(N2CCCC2)nc(N(c2ccccc2)c2ccccc2)n1 | 20%
CCC(=O)Nc1cc(-c2nn(CC(=O)N3CCCCC3)c(=O)c3ccccc23)ccc1N1CCOCC1 | 13%
NC(=S)N=Nc1c(O)[nH]c2ccccc12 | -13%
O=C(CC1CC2CCC1C2)N1CCN(S(=O)(=O)c2ccccc2F)CC1 (stereo unspecified) | -1%
O=C1c2ccccc2NC(c2ccccc2Cl)N1N=C1CCCCCC1 (stereo unspecified) | -13%
Cc1ccc(SCc2cc(=O)[nH]c(N3CCN(C)CC3)n2)cc1 | 4%
O=C(/C=C/c1ccc2ccccc2c1)c1ccoc1 | 10%
CC(Sc1nnc(C2CC2)n1Cc1ccccc1)C(=O)N1CCNC1=O (stereo unspecified) | -27%
CC1CN(S(=O)(=O)c2ccc(-c3nc4ccccc4s3)cc2)CC(C)O1 (stereo unspecified) | -1%
CN(C(=O)c1cc(-n2cnnc2)ccc1Cl)c1ccccc1 | -1%
CCCC(=O)Nc1nc2c(c(=O)[nH]1)CCCC2 | 0%
CC(C)(C)C(O)CN1CCCC1 (stereo unspecified) | 26%
COc1ccc(Cn2c(=S)[nH]c3ccccc3c2=O)cc1 | 16%

These rows are one share of the data (hit frequency here may not be typical).
